Screening results: PubChem BioAssay, National Center for Advancing Translational Sciences (NCATS)
GLA inh pH 4.5: qHTS Assay for Inhibitors of Human alpha-Galactosidase at pH 4.5; 230,000 tested, under 10 active; activity change, negative = inhibition, % at 105 µM; purified enzyme, 4-MU-alpha-Gal fluorescence, pH 4.5; Alpha-galactosidase A (Homo sapiens), P06280; inconclusive = small, poorly fitted or top-dose-only inhibition, or a rising curve; inactive = flat fitted curve, though single readings scatter; no compound was filed as active;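 further: 0% = full activity with enzyme and -100% = basal without enzyme; dose as in the result columns while the protocol names 77 µM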
miR-21 reporter: qHTS Assay for Modulators of miRNAs and/orActivators of miR-21; HeLa miR-21 FLuc reporter, luciferase, 48 h; Potency, µM (series often up to 38.3 µM), for inactives: top-dose reporter change, positive = more light; 340,000 tested, under 10 active; AID 2288, 2010; active = well fitted rising curve with a large enough effect; inconclusive = small, poorly fitted or top-dose-only effect; inactive = no such curve, though single readings can be large or run the other way;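 further: % of control where 0% means no effect; miR-21 action dims this reporter so a rising signal means less miR-21 action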
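Luminescence from a firefly luciferase reporter carrying a miR-21 binding site downstream, stably expressed under a CMV promoter in HeLa cells that make miR-21 endogenously, reports miRNA modulation after 48 h compound exposure up to approximately 40uM final.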
Rango dissoc inh: qHTS Assay for Inhibitors of RanGTP induced Rango (Ran-regulated importin-beta cargo) - Importin beta complex dissociation; Snurportin-1 (Homo sapiens) + GTP-binding nuclear protein Ran (Homo sapiens) + Importin …; Biochemical FRET Rango-importin beta, RanGTP-induced dissociation; Potency, µM (top dose mostly 46.1 µM), inactives show at the top dose activity change, negative = inhibition; hit rate 0.071% among 340,000; AID 540253, 2011; active means falling FRET ratio curve, often poorly fitted, with flat reads before Ran was added; inconclusive means other falling curves, or compound fluorescence or quenching; inactive means flat or rising ratio curve;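 further: potency means the concentration at half of the fitted maximal effect; % of control where 0% means no effect; nearly all actives have a fitted effect of over 45% in size; -100% = wells without RanGTP and RCC1; the record marks most hits as doubtful in a second field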
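FRET read at 45 min, room temperature: inhibitors block the CFP/YFP signal rise when RanGTP (0.6 uM Ran, 2 mM GTP, 0.2 uM RCC1) frees Rango (0.1 uM) from importin beta (0.25 uM). Pre-read after 5 min compound exposure flags interference.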
Rango-impB inh: qHTS Assay for Inhibitors of Rango (Ran-regulated importin-beta cargo) - Importin beta complex formation. AID 540263, 2011. Potency, µM (doses to about 92.2 µM), for the others: at the highest dose inhibition of complex formation. Importin subunit beta-1 (Homo sapiens), Q14974. Rango CFP/YFP FRET sensor + importin beta, 45 min. hit rate 0.031% among 340,000; active = rising FRET ratio curve, often small or poorly fitted; inconclusive = mostly compound fluorescence or quenching in the first reads; inactive = flat curves in all reads;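 further: potency means the concentration at half of the fitted maximal effect; 0% = DMSO wells and 100% = buffer wells lacking importin beta; nearly all actives have a fitted effect of over 15% in size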
Target sequence (Q14974 whole entry, looked up): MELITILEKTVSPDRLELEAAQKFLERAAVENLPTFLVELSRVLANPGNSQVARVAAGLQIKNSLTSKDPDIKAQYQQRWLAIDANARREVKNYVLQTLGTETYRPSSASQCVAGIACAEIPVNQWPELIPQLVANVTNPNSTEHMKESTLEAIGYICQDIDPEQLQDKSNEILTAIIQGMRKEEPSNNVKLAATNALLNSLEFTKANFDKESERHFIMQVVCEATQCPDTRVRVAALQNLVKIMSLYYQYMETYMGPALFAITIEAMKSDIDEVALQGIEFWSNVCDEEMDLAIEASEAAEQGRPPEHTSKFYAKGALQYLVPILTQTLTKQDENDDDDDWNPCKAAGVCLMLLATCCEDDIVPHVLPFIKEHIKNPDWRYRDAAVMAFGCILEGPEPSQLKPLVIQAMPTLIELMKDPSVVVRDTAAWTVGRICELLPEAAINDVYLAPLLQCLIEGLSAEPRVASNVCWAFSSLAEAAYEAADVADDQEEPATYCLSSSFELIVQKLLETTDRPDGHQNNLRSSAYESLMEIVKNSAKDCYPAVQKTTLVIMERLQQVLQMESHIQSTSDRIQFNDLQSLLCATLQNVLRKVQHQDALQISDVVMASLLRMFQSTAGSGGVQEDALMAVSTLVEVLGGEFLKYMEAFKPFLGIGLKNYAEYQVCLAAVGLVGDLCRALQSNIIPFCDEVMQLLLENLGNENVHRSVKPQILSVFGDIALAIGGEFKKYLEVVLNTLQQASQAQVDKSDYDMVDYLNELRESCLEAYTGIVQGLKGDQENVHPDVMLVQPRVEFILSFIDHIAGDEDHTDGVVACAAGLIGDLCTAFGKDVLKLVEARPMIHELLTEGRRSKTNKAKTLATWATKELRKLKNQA
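FRET biosensor Rango (snurportin 1 IBB between N-terminal EYFP and C-terminal Cerulean), 50 nM in PBS/1 mM DTT/0.02% Tween-20/0.1% BSA, preincubated 5 min RT with compound; 0.125 microM importin beta added, 45 min RT, CFP/YFP FRET ratio read.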
* hit, by the source's call; ? = inconclusive; · = no result given; & = joins results of further samples.

# | smiles | GLA inh pH 4.5 | miR-21 reporter | Rango dissoc inh | Rango-impB inh
1 | CCCCCn1c(=O)c(C(=O)NCc2ccccc2Cl)c(O)c2ccccc21 | · | -2.5% | -3.5% | -0.6%
2 | CCCC(=O)c1ccc(CP(=O)(OCC)OCC)o1 | -4.3 | 6.3% | -8.8% | -4.6%
3 | O=C(Cc1cccc(C(F)(F)F)c1)N1CCN(CC(=O)N2CCCC2)CC1 | · | · | -0.6% | 1.3%
4 | COC(=O)C1=C(c2ccc3ccccc3c2)C[C@@H]2CC[C@H]1N2C(=O)N1CCC(O)CC1 | · | · | -8.3% | -0.8%
5 | CC1(O)CCN2C(=O)CCc3cccc1c32 (configuration not stated) | · | · | 5.8% | -1.8%
6 | O=C(NN=Cc1ccc(N(CCCl)CCCl)cc1)c1cccnc1 | · | · | 0.4% | -1.4%
7 | Cn1c(=O)c2c(nc(N/N=C/c3c(O)n(C4CCCCC4)c(=S)[nH]c3=O)n2C)n(C)c1=O | -4.7 | 2.0% | ? | ?
8 | CCC1=C(C)C(N2CCOCC2)=NP(N2CCOCC2)(N2CCOCC2)=N1 | 11.0 | -1.3% | 5.3% | -2.6%
9 | CCOC(=O)C(O)(c1ccc(N(CC)S(=O)(=O)c2ccccc2)cc1)C(F)(F)F (configuration not stated) | -1.9 | -6.7% | -15.2% | -1.2%
10 | CCC(C)C1NC(=O)C(C(C)=O)=C1O (configuration not stated) | 1.1 | 14.2% | -7.0% | -1.8%
11 | CN(C)CCCNCC(=O)Nc1ccc(Cl)cc1C(=O)c1ccccc1 | 14.1 | 7.6% | -3.1% | 1.8%
12 | CC1COC2N=C(N[N+](=O)[O-])NC2O1 (configuration not stated) | -2.9 | -0.9% | -7.9% | -1.8%
13 | CC(C)c1cc(Br)c(NC(=O)Nc2cccnc2)c(Br)c1 | · | -4.3% | -2.2% | -2.6%
14 | CC(=O)OC1CCC2(C)C(=CC(=O)C3C2CCC2(C)C(OC(C)=O)CCC32)C1 (configuration not stated) | · | · | 1.5% | 2.4%
15 | O=C(O)CCCCC1SCC2NC(=O)NC21 (configuration not stated) | -6.8&-1.7&11.8 | -0.3%&-3.6% | -4.3% | ?

Only miR-21 reporter and Rango dissoc inh, for some of the entries so far:
No. | mol | miR-21 reporter | Rango dissoc inh
7 | Cn1c(=O)c2c(nc(N/N=C/c3c(O)n(C4CCCCC4)c(=S)[nH]c3=O)n2C)n(C)c1=O | 2.0% | ?
8 | CCC1=C(C)C(N2CCOCC2)=NP(N2CCOCC2)(N2CCOCC2)=N1 | -1.3% | 5.3%
9 | CCOC(=O)C(O)(c1ccc(N(CC)S(=O)(=O)c2ccccc2)cc1)C(F)(F)F (configuration not stated) | -6.7% | -15.2%

Later entries.
# | smiles | GLA inh pH 4.5 | miR-21 reporter | Rango dissoc inh | Rango-impB inh
16 | O=S(=O)(c1ccc(O)cc1)c1ccc(O)cc1 | · | 0.7% | 27.6% | -2.8%
17 | Oc1c(Br)cc(Br)cc1Oc1ccc(Br)cc1Br | -2.3 | 2.9% | · | ·
18 | COC(=O)C1=C(c2ccccc2)C[C@@H]2CC[C@H]1N2C(=O)NC1CCCCC1 | · | · | -0.4% | -3.0%
19 | Nc1ccc(C2(c3ccc(N)cc3)c3ccccc3-c3ccccc32)cc1 | -29.4 | -2.2% | 0.6% | -2.9%
20 | C=CCC1C(=O)NC(=S)NC1=O | -1.2 | -0.1% | -8.8% | 5.2%
21 | O=[N+]([O-])c1cc(-c2ccc([As](=O)(O)O)cc2)ccc1[As](=O)(O)O | 0.8 | 0.1% | · | ·
22 | CN(C)CC1CSCCC1(O)c1cccc(Cl)c1 (configuration not stated) | 0.9 | -0.7% | 10.3% | 0.0%
23 | O=C1C2CCCC1C(N1CCCCC1)CC2 (configuration not stated) | · | -3.8% | 6.0% | -0.5%
24 | COC(=O)C1=C(c2ccc(Cl)c(C(F)(F)F)c2)C[C@@H]2CC[C@H]1N2C(=O)NCCOc1ccc(OC)cc1 | · | · | 2.3% | -0.7%
25 | CC(C)Oc1cccnc1N(C)C1CCN(Cc2ccccc2)CC1 | 2.0 | · | -15.5% | 0.5%
26 | Nc1ccc(Cl)cc1C(=O)c1ccccc1 | -2.1 | -7.5% | 0.3% | 3.0%
27 | Cc1ccsc1C(=O)C1CCCN(Cc2ccc(-n3cccn3)cc2)C1 (configuration not stated) | -3.3 | 6.2% | 12.9% | -0.7%
28 | NNc1n[nH]c(=S)n1N | -1.3 | -7.9% | -7.4% | 4.9%
29 | O=C1NC(=O)N(Cc2ccco2)C(=O)/C1=C\c1cccn1CCOc1ccc(Cl)cc1 | 4.2 | -18.2% | -13.7% | ?
30 | O=C(CN1CCCCC1)c1ccc(OC(F)F)cc1 | 5.9 | -1.7% | 13.6% | 3.7%
31 | CSc1ncc(CN2CCCC(C(=O)c3cccc(Cl)c3)C2)cn1 (configuration not stated) | -5.2 | -3.6% | 5.1% | 1.2%
32 | Cc1ccc(-c2nc3ccccc3c(=O)n2-n2cccc2)cc1 | -10.4 | -1.8% | 10.2% | 0.1%
33 | COC(=O)C1=C(c2ccc3ccccc3c2)C[C@@H]2CC[C@H]1N2C(=O)NC(C)C | · | · | -9.7% | -0.3%
34 | COC(=O)C1=C(c2ccc(-c3ccccc3)c(F)c2)C[C@@H]2CC[C@H]1N2C(=O)NC1CC1 | · | · | 10.1% | 0.2%
35 | O=P1(NCc2ccco2)COc2ccccc2OC1 | 0.5 | -1.4% | 2.0% | -3.6%
36 | COc1cccc2cc(-c3cc(=O)oc4ccc(OC(=O)N(C)C)cc34)oc12 | · | 0.8% | 22.4% | ?
37 | COC(=O)[C@@H]1C(OC(=O)c2ccccc2)CC2CCC1N2C (some centres not stated) | · | · | 2.8% | 1.3%
38 | OC12CCCCC1C(c1ccccc1)NCC2 (configuration not stated) | 7.2 | -3.6% | 13.5% | 7.0%
39 | COCCN1C(=O)/C(=C/c2c(OC)cc(OC)cc2OC)C(=O)N(c2ccccc2)C1=O | 1.1 | 1.1% | 6.3% | 2.2%
40 | CC/C(=N\Nc1ccccc1)c1c(O)n(-c2ccccc2)c(=O)[nH]c1=O | -26.8 | 12.6% | 0.1% | -3.1%
41 | CC1(C)C[C@H]2C=C(C=O)[C@]3(C=O)C[C@]3(C)[C@H]2C1 | -5.3 | 24.3% | 9.8% | 0.3%
42 | O=c1[nH]c(=S)n(-c2ccccc2)c(O)c1/C=N/N1CCCCC1c1cccnc1 (configuration not stated) | 2.6 | -4.4% | -7.1% | 4.9%
43 | CN1CCC(O)(c2ccccc2)C(C(=O)c2ccccc2)C1 (configuration not stated) | -4.1 | -3.2% | 13.2% | -2.2%
44 | CCC(=O)N1CC(=O)Nc2ccc(Cl)cc2C1c1ccc(F)cc1 (configuration not stated) | 3.7 | -20.0% | 11.3% | 3.3%
45 | CCOC(=O)C(O)(c1ccc(NC(=O)NC2CCCCC2)cc1)C(F)(F)F (configuration not stated) | -2.9 | -37.0% | ? | 0.4%
46 | CC1=CC(=O)OC2CC3OC4C[C@@H](C)C5OC6CC7O[C@]8(C)C/C=C\C9OC%10CC%11OC(CC(C)C%12OCCO%12)CC(O)[C@]%11(C)OC%10CC9OC8C[C@]7(C)O[C@]6(C)CCC5OC4C[C@]3(C)OC12 (some centres not stated) | · | · | -19.0% | 0.8%
47 | COc1ccc(NC(=O)N2C[C@@H]3C[C@@H](C2)c2cccc(=O)n2C3)c(OC)c1 | · | 0.0% | -10.9% | -0.5%
48 | O=c1[nH]c(=O)n(Cc2ccco2)c(O)c1C=NCc1ccc2c(c1)OCO2 | 1.6 | 0.5% | -12.6% | 0.3%
49 | COc1cccc2c1O[C@H]1C(=O)CC[C@H]3CN(C)CCC231 (some centres not stated) | · | · | 32.4% | -0.3%
50 | COP(=O)(OC)C(NC(C)=O)C(Cl)(Cl)Cl (configuration not stated) | 1.1 | 0.9% | 4.8% | 1.1%
51 | Cc1ccc(NC(=S)NCCc2cnc[nH]2)cc1C | 5.3 | -2.1% | ? | ?
52 | Cc1ccc2ccccc2c1NC(=O)CNC1CCCCC1 | 5.7 | -1.1% | 9.0% | -1.0%
53 | CC(=O)N1CCN(c2ccc([N+](=O)[O-])cc2C=C2C(=O)NC(=O)NC2=O)CC1 | -7.9 | 0.0% | -10.6% | ?
54 | COc1ccccc1N1CCN(Cc2ccc(Br)s2)CC1 | -2.8 | -1.0% | 15.4% | 4.2%
55 | COC(=O)C1=Nc2ccccc2/C1=C\c1c(O)n(-c2cc(OC)ccc2OC)c(=O)[nH]c1=O | -11.6 | -0.9% | -13.2% | -1.5%
56 | CCCCOC(=O)c1ccc(NC(=O)c2c(O)[nH]c(=O)[nH]c2=O)cc1 | · | · | -2.8% | 3.4%
57 | NC1=NC(c2cccnc2)n2c(nc3ccccc32)N1 (configuration not stated) | -3.9 | 5.7% | 9.1% | 2.3%
58 | CCc1ccc(-n2c(O)c(/C=N/N3CCCCC3c3cccnc3)c(=O)[nH]c2=O)cc1 (configuration not stated) | 4.6 | 1.9% | -1.6% | 1.7%
59 | O=C(N/N=C/c1c(O)n(C2CC2)c(=S)[nH]c1=O)c1ccccc1 | · | -40.0% | ? | ?
60 | CN(C)C(=O)Oc1ccc2nnc3ccnn3c2c1 | · | 0.0% | ? | ?

Some values from the list.
no. 19 in Rango dissoc inh reads 0.6%
no. 41 in miR-21 reporter reads 24.3%

(further entries)
# | smiles | GLA inh pH 4.5 | miR-21 reporter | Rango dissoc inh | Rango-impB inh
61 | Cc1nc2ccc(NC(=O)c3ccc(Cl)s3)cc2s1 | -0.4 | -68.0% | -11.2% | 4.9%
62 | CC(N)C(=O)NC1C2C(=C(O)CC(O)C2O)C(=O)OC1(C)C(Cl)Cl (configuration not stated) | · | · | -7.4% | 5.6%
63 | Nc1ccc([N+](=O)[O-])cc1 | · | · | 0.7% | -0.3%
64 | Cc1ccc(C(=O)Nc2nc3ccccc3n2CCN2CCCC2)cc1 | -7.1 | -21.8% | -5.2% | -3.6%
65 | COc1cc2c(cc1/C=C/[N+](=O)[O-])OCO2 | 7.1 | ? | 17.3% | 8.6%
66 | CN1CCN(c2ccc(N)c(N3CCN(C)CC3)c2)CC1 | -1.4 | 4.2% | -15.5% | 3.8%
67 | CCCC[C@@H](C)C[C@@H](C)C(=O)N(C)[C@@H](CC(C)C)C(=O)N[C@H](C(=O)N(C)[C@H](C(=O)N1C[C@@H](O)C[C@H]1C(=O)N1C(=O)C=C[C@@H]1C)C(C)C)C(C)OC(C)=O (some centres not stated) | · | · | 2.4% | -2.0%
68 | Cc1cc(OCC(=O)NC2CCS(=O)(=O)C2)c2c3c(c(=O)oc2c1)CCC3 (configuration not stated) | 0.7 | 2.9% | 11.8% | -1.2%
69 | CC[n+]1c(/C=C/N(C)c2ccccc2)sc2ccc(Cl)cc21 | -7.4 | 25.3% | -8.5% | ?
70 | CC(C)CC(NC(=O)CCCNC(=O)CCC(=O)OC1O[C@H]2OC3(C)CC[C@H]4[C@H](C)CCC(C1C)C24OO3)C(=O)O (some centres not stated) | · | ? | 15.7% | 3.5%
71 | COc1ccc(OCC(=O)N2CCN(C(C)C)CC2)cc1 | -7.0 | -5.6% | 17.9% | -4.4%
72 | CCN1CCN(C(=O)COc2ccc(S(=O)(=O)N(C)Cc3ccccc3)cc2)CC1 | 7.5 | -5.1% | -10.9% | -3.2%
73 | CN(C)CCNC(=O)C(=O)NCC1OCCCN1S(=O)(=O)c1cccs1 (configuration not stated) | 0.9 | -1.4% | -1.0% | ?
74 | Cc1ccc(-c2nn(Cc3ccccc3)cc2C=O)cc1 | 0.4 | -62.8% | 9.8% | 1.0%
75 | O=c1[nH]c(O)c(C=NC2CCN(Cc3ccccc3)CC2)c(=O)[nH]1 | -8.2 | -9.6% | 8.3% | 1.4%
76 | CCN(CC)C(=O)c1ccc(NC(=O)c2cc(S(=O)(=O)N3CCCCCC3)ccc2OC)cc1 | · | · | 20.1% | 0.8%
77 | COc1ccc(-n2c(SC)nc3ccccc3c2=O)cc1 | 4.7 | -10.6% | 0.8% | -0.9%

This is a subset; rates above refer to the full screens.
